PINK1 expr mod: changes PINK1 expression | 410,000 tested, 0.2% active | Potency, µM (top dose mostly 76.6 µM), for inactives: at the top dose activation (PINK1 increase), most hits filed as activators | PINK1 immunofluorescence, high-content cytometry, 24 h; active = well fitted activation curve with a large enough effect; inconclusive = small, poorly fitted or top-dose-only effect; inactive = flat fitted curve, though single readings scatter; cell line not stated here;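 further: potency means the concentration at half of the fitted maximal effect; % of control where 0% means no effect; nearly all actives have a fitted effect of over 65% in size; a mitochondrial uncoupler was the plate control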
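Measures PINK1 amount and localization on or inside mitochondria by immunofluorescence. Stable cells get compounds at 5 concentrations for 24 hours before fixation and staining; CCCP controls included.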
CtBP-E1A blk: blocks the CtBP interaction with E1A; AID 651724; AlphaScreen GST-E1A/His-CtBP binding, 1536-well; active compounds read low; control for the full effect not named in the record; activity change, % (no concentration beside the values); 340,000 tested, 0.49% active; in the data active means activity change below about -65%; inconclusive means about -30% to -65%; inactive means above about -30%; further: on the % scale 0 is the no-effect control and ±100 the full control effect
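AlphaScreen with 125 nM GST-E1A and 125 nM His-CtBP (5X stocks) in Tris pH 8.0, 300 mM NaCl, BSA, Tween 20, TCEP. Compounds preincubated 2 h at 37 deg C, then glutathione donor/nickel acceptor beads added for 1 h at 37 deg C in dark.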
Six1-Eya2 inh: blocks human Six1 binding to Eya2 | Q15475+O00167 | AlphaScreen GST-Six1/His-Eya2 binding, biochemical; active compounds read low; control for the full effect not named in the record | activity change, % (concentration not given with the values) | 360,000 tested, 0.56% active; in the data active = activity change below about -65%; inconclusive = about -30% to -65%; inactive = above about -30%; further: on the % scale 0 is the no-effect control and ±100 the full control effect
Target sequence (O00167 whole entry, looked up): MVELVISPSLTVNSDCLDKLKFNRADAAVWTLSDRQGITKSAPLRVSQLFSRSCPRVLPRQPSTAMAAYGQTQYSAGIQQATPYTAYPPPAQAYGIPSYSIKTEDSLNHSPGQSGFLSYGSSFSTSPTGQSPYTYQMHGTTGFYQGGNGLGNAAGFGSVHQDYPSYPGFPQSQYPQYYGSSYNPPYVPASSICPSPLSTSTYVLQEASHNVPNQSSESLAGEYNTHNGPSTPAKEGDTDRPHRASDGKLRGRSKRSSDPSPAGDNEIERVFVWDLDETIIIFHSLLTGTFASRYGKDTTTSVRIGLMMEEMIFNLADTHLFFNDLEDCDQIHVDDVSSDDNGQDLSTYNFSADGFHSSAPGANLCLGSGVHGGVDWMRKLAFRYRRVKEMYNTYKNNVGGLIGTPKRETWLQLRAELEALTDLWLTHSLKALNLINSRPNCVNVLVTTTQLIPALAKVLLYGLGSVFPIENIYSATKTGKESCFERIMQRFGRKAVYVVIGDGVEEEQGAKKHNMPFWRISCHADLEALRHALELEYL
Target sequence (Q15475 whole entry, looked up): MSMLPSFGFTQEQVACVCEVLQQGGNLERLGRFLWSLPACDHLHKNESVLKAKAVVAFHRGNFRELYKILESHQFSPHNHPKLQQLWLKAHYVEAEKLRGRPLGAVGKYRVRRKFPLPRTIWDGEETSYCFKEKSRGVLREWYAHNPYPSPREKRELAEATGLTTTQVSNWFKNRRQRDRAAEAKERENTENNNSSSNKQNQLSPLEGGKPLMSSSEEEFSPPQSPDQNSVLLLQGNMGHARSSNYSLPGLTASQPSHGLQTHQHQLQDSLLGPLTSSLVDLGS
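GST-Six1 + His-Eya2 (5X stock: 250/500 nM); Tris pH 8.0, 300 mM NaCl, 0.05% BSA, 0.02% Tween 20; GSH donor/Ni acceptor beads; 1 h 37 °C dark; AlphaScreen readout.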
TRPML1 ag: human mucolipin-1 channel agonism | activation, % (test concentration not listed) | 410,000 tested, 0.12% active | Q9GZU1 | TRPML1-expressing cells, Ca2+ dye fluorescence, FDSS; host cell line not named in the record; reference of the full effect not given here; in the data active = activation above about 50%; inconclusive = about 30% to 50%; inactive = below about 30%; further: 0% is about no effect; the text of the record puts the active cut at 80%
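Cells: TRPML1-DL, 1X Tet inducer, ~16 h at 37 degrees C/5% CO2. Dye: ABD Ca8 no-wash + quencher, 45-90 min RT. Read: 10 s baseline, compound add, 110 s agonist phase; 54-4 EC80 (4uM final), 110 s antagonist phase.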
TRPML1 blocker: blocks the human TRPML1 channel; TRPML1-inducible cells, Ca2+ dye fluorescence, FDSS; active compounds read low; inhibition of EC80 agonist-evoked calcium signal; activity change, negative = inhibition, % (no concentration beside the values); 390,000 tested, 0.02% active; in the data active means activity change below about -50%; inconclusive means about -30% to -50%; inactive means above about -30%;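 further: stimulus is agonist 54-4 at its EC80 concentration; on the % scale 0 is the no-effect control and ±100 the full control effect; compound concentration not given in the record; the text of the record puts the active cut at -80%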
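TRPML1-DL cells, Tet-induced overnight (~16 h, 37 °C) at 1,500 cells/well, were loaded with Ca8 no-wash dye plus quencher for 45-90 min at room temperature. Compounds were pinned during FDSS kinetic reading; agonist 54-4 at EC80 (4 uM final) then added.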
D2 agonist: agonists of human D2 dopamine receptor (beta-arrestin). P14416. DiscoveRx PathHunter D2 beta-arrestin, luminescence, 90 min; 100% = 57 uM dopamine signal. activation, % (no concentration beside the values). 360,000 tested, 0.084% active; in the data active = activation above about 40%; inconclusive = about 15% to 40%; inactive = below about 15%; further: compound concentration not given in the record; the text of the record calls up to 30% inactive
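DiscoveRx PathHunter D2 beta-arrestin cells (2,100/well) attached overnight, then compound-stimulated 90 min at 37 C in HBSS/10 mM HEPES/0.1% Tween-20 buffer; beta-galactosidase complementation read by luminescence after 1 h at ambient temperature. Dopamine 57 uM final (EC100) as control.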
Starred values were filed as active, the others as inactive; ? = inconclusive; nt = not tested or not shown; [ ] = another dose, or the depositor's remark.

Compound	PINK1 expr mod	TRPML1 ag	TRPML1 blocker	D2 agonist	Six1-Eya2 inh	CtBP-E1A blk
COc1cccc(C2CC(c3cccc(Br)c3)n3ncnc3N2)c1 (configuration not stated)	2.1%	3.3	9	-3.6	2	-1
Cc1ccc(C)c2c1N(Cc1ccccc1)C(=O)C21OCCO1	0.4%	nt	nt	0.9	4	nt
Cc1c(Br)cc(C(=O)NCCCN2CCOCC2)c(C)c1C	4.8%	-0.4	2	-3.2	4	8
Cc1ccc(NC(=O)/C(C#N)=C/c2ccccc2Cl)cc1C	3.5%	1.9	4	nt	nt	nt
Cc1ccc(CNS(=O)(=O)NCc2cccs2)cc1	-0.4%	1.0	-5	0.6	-3	nt
CC1(C)CC(=O)C(N=Nc2ccc(C(F)(F)F)cc2[N+](=O)[O-])=C(O)C1	0.7%	0.0	10	-4.0	-10	-7
O=C(Nc1cc(Cl)ccc1Cl)c1cc2nc(-c3ccc4c(c3)OCO4)cc(C(F)(F)F)n2n1	4.2%	-0.3	-10	nt	nt	nt
Cc1ccccc1-n1c(SCC(=O)c2ccccc2)nnc1-c1ccc(F)cc1	0.5%	3.2	42	nt	nt	nt
CCc1ccc(NC(=O)Cn2cnc3sc(C)c(S(=O)(=O)N4CCC(C)CC4)c3c2=O)cc1	-0.1%	0.3	6	nt	nt	nt
c1ccc(CN2CCN(c3nc(-c4ccccc4)nc(-n4ccnc4)n3)CC2)cc1	-14%[38.3 µM]	-0.5	59	-3.9	-24	-27
CC(C)=C1CCC(C)CC1=NNC(N)=S (configuration not stated)	7.6%	-0.4	4	-3.5	3	5
CCOCCn1c(N2CCN(c3ccc(OC)cc3)CC2)nc2c1c(=O)[nH]c(=O)n2C	-0.8%	-0.2	-1	-1.5	-2	7
Fc1ccc(N2CCN(C(=S)NCc3ccco3)CC2)cc1	0.7%	0.3	-3	0.4	-6	-23
O=[N+]([O-])c1ccc2c(OCc3nnc(-c4ccccc4Br)o3)ncnc2c1	-0.1%	0.6	32	11	-70*	-85*
N#Cc1c(Cl)nsc1NC(=O)c1ccccc1	13µM*	-0.2	-11	-6.1	1	6

The listing continues:
Compound	PINK1 expr mod	TRPML1 ag	TRPML1 blocker	D2 agonist	Six1-Eya2 inh	CtBP-E1A blk
C=CCOc1ccc(Oc2cc(C)nc(SC)n2)nn1	0.1%	-1.0	-12	0.5	0	-3
CCn1ccc2c(OCC(=O)Nc3ccc(C(C)=O)cc3)cccc2c1=O	-1.5%	0.5	-3	nt	nt	nt
CCOC(=O)CN(C(=O)CSc1nnc(-c2ccc(OC)c(OC)c2)o1)c1ccc(F)cc1	-0.6%[38.3 µM]	0.5	5	-0.8	-15	-4
CCCCCn1nnnc1-c1nc2cc(C)c(C)cc2[nH]c1=O	5.0%	-0.8	nt	nt	-14	-13
COc1ccc(CCNC(=O)C23CCC(C)(C(=O)C2Br)C3(C)C)cc1OC (configuration not stated)	0.9%	-0.8	-16	-3.3	?	?
NC(=O)COc1ccc(/C=N/NS(=O)(=O)c2ccccc2)cc1	0.8%	-0.4	-5	-0.7	8	0
CC(/C=N/NC(=O)Cn1nccc1C)=C\c1ccc(C(C)C)cc1	-1.3%	-0.3	20	-1.5	2	-1
Cc1ccc(C(=O)OCC(=O)NCCC2=CCCCC2)s1	-0.7%	5.8	-15	-3.7	13	-2
Cc1cccc(-c2noc(CCC(=O)NC3CCCCC3)n2)c1	0.7%	-0.1	9	-2.2	1	4
CS(=O)(=O)NNC(=O)Cn1nnc(-c2ccc(OCc3ccccc3Cl)cc2)n1	-0.7%	-0.1	23	-4.7	-4	nt
O=C(OCc1nc2ccsc2c(=O)[nH]1)c1ccc(Cl)s1	3.9%	0.2	6	1.8	-8	0
O=C(CS(=O)CC(=O)Nc1cccc2c1CCCC2)Nc1ccc(F)cc1 (configuration not stated)	0.8%	0.0	-26	-3.0	-8	4
Cn1c2ccccc2c(=O)c2c(=O)n(-c3ccccc3)c(C3CCCCC3)nc21	1.1%	4.4	29	-1.0	4	-1
O=C(CNCc1ccccc1Cl)Nc1ccccc1N1CCCCC1	5.4%	2.3	-11	-2.4	6	-19
CC1=CC(C)(C)N(S(=O)(=O)c2ccc(F)cc2)c2ccc(C)cc21	20%[38.3 µM]	1.1	63	-0.5	9	23

The results go on:
Compound	PINK1 expr mod	TRPML1 ag	TRPML1 blocker	D2 agonist	Six1-Eya2 inh	CtBP-E1A blk
O=C(CCl)NC1CCCc2ccccc21 (configuration not stated)	1.0%	0.2	3	-0.4	0	1
Cc1ccc(-c2nc3ccsc3c(=O)[nH]2)cc1	-4.1%	1.1	9	0.3	-19	-4
COC(=O)c1c(NC(=O)c2ccco2)sc(C(=O)N(C)C)c1C	-1.2%	0.1	-7	-3.4	-1	-3
O=C(O)c1cccc(-c2ccc(/C=N/NC(=O)C3COc4ccccc4O3)o2)c1 (configuration not stated)	2.7%	0.2	9	6.8	-14	-18
O=C(Oc1coc(CSc2ncccn2)cc1=O)c1cccc([N+](=O)[O-])c1	1.9%	-0.9	4	4.7	1	1
CC1=NN(c2ccccc2)C(=O)/C1=C/N(C)C	1.4%	0.0	-16	-8.3	0	4
COCCNc1nc(-c2ccccc2)nc2ccccc12	2.1%	1.7	0	7.5	2	6
Cc1c(C(=O)NCc2ccc(C(C)C)cc2)sc(=O)n1Cc1cccc(F)c1	1.1%	5.9	nt	-2.6	-9	3
CN(C(=O)CSc1ncnc2ccccc12)C1CCCCC1	-0.4%	0.2	35	-0.9	9	1
COc1ccc(CNC(=O)c2cccs2)cc1	1.0%[38.3 µM]	1.7	-1	2.8	-1	4
CCOC(=O)C(Cc1ccc(OC)c([N+](=O)[O-])c1)NC(=O)CCC(=O)Nc1ccc(OC)cc1 (configuration not stated)	-3.2%	0.1	36	-0.7	-29	-23
O=C(Cn1cc(C(=O)c2cccs2)c2ccccc21)NCC1CCCO1 (configuration not stated)	3.7%	-0.1	-4	-0.4	-9	0
CCC(=O)N1CCc2cc(CNC(=O)c3ccccc3C)ccc21	2.4%	1.6	-7	nt	nt	nt
CC(C)c1ccc(NC(=O)C2CC(=O)N(C3CCCC3)C2)cc1 (configuration not stated)	-3.0%	-0.1	7	-3.1	-2	-5
COc1ccc(CNC(=O)C(=O)NC2CCC(C)CC2)cc1 (configuration not stated)	3.0%	-0.2	6	-4.3	7	0

(list continues)
Compound	PINK1 expr mod	TRPML1 ag	TRPML1 blocker	D2 agonist	Six1-Eya2 inh	CtBP-E1A blk
CCOc1ccc(C(=O)NCCc2cnc[nH]2)cc1	4.8%	0.3	14	0.2	4	4
Cn1nc(CC(=O)NCc2cccc3ccccc23)c2ccccc2c1=O	9.6%	1.0	4	-0.1	2	7
C1CCc2nnc(-c3nnc4n3CCCCC4)n2CC1	2.5%	0.3	1	1.3	6	1
COCCn1c(SCc2cccnc2)nnc1-c1ccco1	-0.8%	0.4	10	-4.9	8	5
O=C(Nc1cccc(-c2csc(Nc3ccc(Cl)cc3)n2)c1)c1ccccc1	10%	-0.1	16	0.1	-30	nt
CCOC(=O)C1CCN(C2CC(=O)N(c3cccc(Cl)c3)C2=O)CC1 (configuration not stated)	nt	-0.6	2	1.1	4	10
O=S(=O)(c1cccs1)N1CCCc2cccc(O)c21	-0.4%	2.1	3	-0.9	-2	-6
Cc1nnc(SCc2ccccc2)[nH]c1=O	-1.5%	0.4	4	2.0	3	-4
CCOC(=O)N1CCN(C(=O)c2ccc(CN(c3ccccc3)S(C)(=O)=O)cc2)CC1	0.5%	-0.1	8	0.4	11	12
COc1ccc(N2C(=O)C3C(C2=O)C(C(=O)c2ccccc2)N2CCCC32)cc1 (configuration not stated)	0.1%	2.3	9	-3.4	-5	-18
Cc1nc(C)n(CC(O)COc2ccc(C(=O)c3ccccc3)cc2)n1 (configuration not stated)	-1.0%	-0.3	-5	0.2	2	9
CCN1C[C@@H]2[C@@H]3C(=O)N(C)C(=O)[C@@H]3[C@](CC)(C(=O)OC)N2C1=NC	-0.7%	1.1	-27	-0.7	16	12
COc1ccccc1NC(=O)C1=C(C)Nc2nc(SCc3cccc(F)c3)nn2C1c1ccc(C(=O)O)cc1 (configuration not stated)	0.4%	0.7	-15	nt	nt	nt
O=C(O)C1CCCN1S(=O)(=O)c1ccc(F)cc1 (configuration not stated)	0.9%	0.9	3	2.2	3	nt
COc1ccc(NCc2cc(=O)[nH]c3ccccc23)cc1	-0.3%	-1.3	-4	-0.9	10	0

Given with two lines to a compound: part of the list above
Below each SMILES: PINK1 expr mod	TRPML1 ag	TRPML1 blocker	D2 agonist	Six1-Eya2 inh	CtBP-E1A blk
> O=S(=O)(c1cccs1)N1CCCc2cccc(O)c21
 : -0.4%	2.1	3	-0.9	-2	-6
> Cc1nnc(SCc2ccccc2)[nH]c1=O
 : -1.5%	0.4	4	2.0	3	-4

The list continues.
Compound	PINK1 expr mod	TRPML1 ag	TRPML1 blocker	D2 agonist	Six1-Eya2 inh	CtBP-E1A blk
Cc1nn(C)cc1CN(C)C(=O)CC12CC3CC(CC(C3)C1)C2	-1.8%	0.2	26	0.0	-4	-5
CCOC(=O)C1CCN(C(=O)CCCn2nc(CC)n3c(cc4occc43)c2=O)CC1	1.6%	-0.3	-7	-2.2	-1	-1
O=C(CN1C(=O)COc2ccccc21)NNC(=O)Nc1ccccc1F	-1.3%	0.0	-5	-3.2	-7	-7
Cc1ccc(-c2cc(-c3ccccc3)nc(N(C)N)n2)cc1	-1.2%	1.0	29	-0.5	11	nt
O=C(CSc1nc2c(c(=O)[nH]1)CCC2)Nc1cccc(O)c1	5.5%	2.0	-13	nt	nt	nt
CC(=O)N1CCN(S(=O)(=O)c2cccc(C(=O)OCC(=O)Nc3c(Cl)cccc3C(F)(F)F)c2)CC1	0.2%	-0.2	-7	-1.5	4	5
Cc1cc(C)cc(NC(=O)Cn2cnc3c(nnn3Cc3ccc(F)cc3)c2=O)c1	2.5%	0.6	6	-0.1	7	1
COC(=O)CN1C(=S)N(c2ccccc2)C(=O)C1CC(=O)Nc1ccc(Cl)cc1 (configuration not stated)	8.5%	0.6	-13	-4.3	-1	1
O=C(O)CC(CC(=O)Nc1ccc(-c2ccccc2)cc1)c1ccccc1 (configuration not stated)	1.4%	1.7	-2	2.1	-12	nt
CS(=O)(=O)N(CC(=O)O)c1cc(Cl)cc(Cl)c1	0.2%	0.3	12	-1.7	7	3
CCOC(=O)CCCNC(=O)COC(=O)c1cc2ccccc2cc1O	-0.6%	1.5	-7	-1.8	-3	-2
Cc1nc2ccccc2n1/C(=N\S(=O)(=O)c1ccccc1)c1ccccc1	1.9%	-0.5	1	-4.1	0	1
COc1ccc(NC(=O)CN2CCc3ccccc3C2)c([N+](=O)[O-])c1	0.2%	-1.3	11	2.8	?	-22
Cc1nc2ccc(NS(=O)(=O)c3ccc(C)c(C)c3)cc2s1	-1.1%	-0.3	1	0.2	2	0
COc1ccc(/C(C)=N/N=C2/NC(=O)CC(C(=O)O)S2)cc1F (configuration not stated)	-0.9%	0.9	1	-2.9	-1	-1
Cc1cc(C)nc(Sc2ccc([N+](=O)[O-])cc2[N+](=O)[O-])n1	7.3%	0.4	3	8.6	1	1

Bioassay records as filed in PubChem BioAssay.

Rows are unselected; about 1% have a hit in one of these screens.
